Assay outcomes as filed in PubChem.
TRPV1 agonist: human TRPV1 agonism; 0.19% of 320,000 active; Q8NER1; activation, % at 8.33 µM; TRPV1-expressing cells, Fluo-8 calcium influx, agonist mode; in the data active = activation above about 80%; inconclusive = between about 30% and that limit; also: 0% is about no effect
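Cells expressing TRPV1 were dye-loaded with Fluo-8 and read kinetically: 10 s baseline, 3 min after compound (agonist portion), then 2 min after EC20 capsaicin (allosteric enhancer portion). Calcium-bound dye fluorescence at 480/520 nm.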
MLL CXXC-DNA inh: inhibitors of human MLL CXXC domain-DNA interaction. MLL-CXXC / FITC-HOXA9 DNA fluorescence polarization. Q03164. Potency, µM (top dose mostly 115 µM), without a hit: at the highest dose activity change, negative = inhibition, hits mostly inhibitors. 0.037% of 290,000 active; active = well fitted inhibition curve with a large enough effect in the polarisation, with a control signal flat, not every such curve was filed as active; inconclusive = small, poorly fitted or top-dose-only effect, or effect the other way, or a change in a side signal; inactive = no such curve, though single readings can be large or run the other way; the % refers to the polarisation; also: potency is read from the fitted curve at half-maximal effect
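Steps: dispense CXXC domain solution (7 uM) → pin compounds or unlabeled HOX-A9 DNA control → 5 min ambient → add FLSN-HOX-A9 solution (50 nM) → spin → 30 min ambient → fluorescence polarization. Tris pH 7.5/NaCl/DTT/BSA buffer.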
USP2a inh: blocks human ubiquitin-specific protease USP2a; USP2 core, Ub-CHOP2 coupled fluorogenic reporter, 485/531; 0.01% of 330,000 active; O75604; AID 463254; Potency, µM (series often up to 38.3 µM), without a hit: top-dose activity change, negative = inhibition, usual class: inhibitors;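 also: potency is read from the fitted curve at half-maximal effect; plate controls were DMSO wells for no effect and full inhibition by NEM control for full effect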
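USP2 core (10nM final) preincubated 30min RT with compound in 20mM Tris-HCl pH 8.0, 2mM CaCl2, 2mM beta-mercaptoethanol, 0.05% CHAPS; 25nM Ub-CHOP2 plus 25nM reporter substrate added, fluorescence (Ex485/Em531) read after 60min.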
Coupling enz: inhibits coupling enzyme system, counter-screen for aldolase hits. coupling enzyme system counterscreen, AmpLite Red fluorescence. activity change, negative = inhibition, % at 58.2 µM, hits read low. 0.67% of 290,000 active; in the data active = activity change below about -30%; also: % is scaled to controls: 0 for no effect and ±100 for the full control effect
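Counterscreen lacking aldolase: glyceraldehyde-3-phosphate coupling-enzyme reagent preincubated 10 min at RT with compound (at 57.5 uM final), then substrate/coupling system with AmpLite Red added; fluorescence read at 525/598 nm after 20 min RT.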
Giardia kill: kills Giardia lamblia; 0.15% of 340,000 active; activity change, % at 7.66 µM, hits read low; Giardia lamblia trophozoite viability; in the data active = activity change below about -80%; inconclusive = between about -30% and that limit;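 also: parasites exposed to compound for two days anaerobically before the ATP read; % is scaled to controls: 0 for no effect and ±100 for the full control effect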
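Anaerobic 48 hrs incubation at 37 deg C of 100 trophozoites/well with test compounds; ATPLite 1-Step luminescence, 15-30 min RT, reports cellular ATP as viability.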
Menin-MLL TR inh: inhibitors of human menin-MLL interaction, mutant MLL peptide | AID 1768 | Potency, µM (highest dose often 61.6 µM), for the others: at the top dose FP activity change, negative = inhibition, hits mostly inhibitors | Menin + Texas Red MLL mutant peptide, fluorescence polarization | 0.23% of 270,000 active | O00255; active = well fitted inhibition curve with a large enough effect in the polarisation, with a control signal flat, not every such curve was filed as active; inconclusive = small, poorly fitted or top-dose-only effect, or effect the other way, or a change in a side signal; inactive = no such curve, though single readings can be large or run the other way; the % refers to the polarisation; also: potency is read from the fitted curve at half-maximal effect; % of control where 0% means no effect; many of its hits are not listed in these tables
GALK inh: blocks human galactokinase activity | P51570 | Purified GALK, Kinase-Glo residual ATP luminescence | Potency, µM (titrated, usually from 57.5 µM), for inactives: at the top dose activity change, negative = inhibition, actives largely listed as inhibitors | 0.007% of 270,000 active | AID 1868; also: potency is read from the fitted curve at half-maximal effect; % is scaled to controls: 0 for no effect and ±100 for the full control effect
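Kinase-Glo Plus luminescence measured ATP left after a 1 h room-temperature reaction. The reaction used 5 nM GALK, 100 uM galactose and 35 uM ATP at pH 8.0 (20 mM HEPES, 5 mM MgCl2, 60 mM NaCl, 1 mM DTT, 0.01% BSA).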
PKM2 activator: activators of human pyruvate kinase M2. AID 1631. purified PKM2, Kinase-Glo ATP luminescence, activation; response scale: 0% is enzyme alone, no compound. P14618. 0.34% of 260,000 active. Potency, µM (top dose mostly 57.5 µM), inactives show at the highest dose activation, hits mostly activators; also: potency is read from the fitted curve at half-maximal effect; % is scaled to controls: 0 for no effect and ±100 for the full control effect; nearly all actives have a fitted effect of over 55% in size
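Kinase-Glo luminescence reports ATP generated from ADP (0.1 mM) and PEP (0.5 mM) by purified hPK-M2 after 1 h at room temperature, pH 7.2 imidazole buffer; intermediate enzyme activity allows detecting inhibitors and activators.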
Numbers without * were called inactive; ? = inconclusive; · = no result given; & = joins results of further samples; [ ] = dose if it differs, or a comment. Unless noted, calls follow the shape of the dose curve; as a rule, active = well fitted curve in the direction sought with a large enough effect; inconclusive = small, poorly fitted or top-dose-only effect, or another doubt; inactive = no such curve, though single readings can be large; an effect the other way counts as inactive or inconclusive. Not all compounds are listed, so the mix of outcomes need not match the whole.

Assay codes – A = TRPV1 agonist; B = MLL CXXC-DNA inh; C = USP2a inh; D = Coupling enz; E = Giardia kill; F = Menin-MLL TR inh; G = GALK inh; H = PKM2 activator
#1 CCCCc1oc2ccccc2c1C(=O)c1cc(I)c(OCCN(CC)CC)c(I)c1
  A: 1 | B: 8%&5% | C: -2% | D: 0&2&5 | E: 2 | F: ? | G: -1% | H: 5%

#2 COc1ccc2c(c1OC)C(=O)O[C@@H]2[C@H]1c2c(cc3c(c2OC)OCO3)CCN1C
  A: 3 | B: 14% | C: 3% | D: 0&-2&2 | E: -5 | F: -1% | G: · | H: ·

#3 CCN(CC)Cc1cc(Nc2ccnc3cc(Cl)ccc23)ccc1O
  A: 18&27 | B: -8% | C: 1%&-1% | D: -2&3 | E: -8&10 | F: -2% | G: · | H: 23%

#4 CN1CCN2c3ncccc3Cc3ccccc3[C@@H]2C1
  A: -1 | B: 3% | C: 0% | D: 1 | E: 13 | F: 4% | G: · | H: 4%

#5 Cn1nnnc1SCC1=C(C(=O)O)N2C(=O)C(NC(=O)C(O)c3ccccc3)C2SC1 (configuration not stated)
  A: · | B: · | C: · | D: -6 | E: · | F: 16% | G: · | H: ·

#6 CN(C)CC[C@@H](c1ccccc1)c1ccccn1
  A: · | B: · | C: · | D: -1 | E: · | F: 6%[24.8 µM] | G: · | H: ·

#7 O=C(O)COCCN1CCN(C(c2ccccc2)c2ccc(Cl)cc2)CC1 (configuration not stated)
  A: 1 | B: 15% | C: 4% | D: 2&3&-1 | E: 11 | F: 5%&-10%&-12% | G: -3% | H: -6%

#8 O=c1[nH]c(=O)n([C@H]2C[C@H](O)[C@@H](CO)O2)cc1C(F)(F)F
  A: -3 | B: 0% | C: 3% | D: 1 | E: ? | F: 1% | G: -1% | H: 3%

#9 CC(=O)C[C@H](c1ccc([N+](=O)[O-])cc1)c1c(O)c2ccccc2oc1=O
  A: · | B: -1%[51.4 µM] | C: · | D: 9 | E: · | F: -3%[24.8 µM] | G: · | H: ·

#10 CN1CCN(C2Cc3ccccc3Sc3ccc(Cl)cc32)CC1 (configuration not stated)
  A: 6 | B: -3% | C: 4% | D: · | E: ? | F: ? | G: · | H: ·

#11 CCOc1ccccc1O[C@H](c1ccccc1)[C@H]1CNCCO1
  A: 2 | B: · | C: 3% | D: · | E: -1 | F: · | G: · | H: ·

#12 CNC[C@H](O)[C@H](O)[C@H](O)[C@H](O)CO
  A: · | B: · | C: · | D: 0 | E: · | F: 6%[24.8 µM] | G: · | H: ·

Compounds listed so far containing a COOH group (two):
Assay codes – A = TRPV1 agonist; B = MLL CXXC-DNA inh; C = USP2a inh; D = Coupling enz; E = Giardia kill; F = Menin-MLL TR inh; G = GALK inh; H = PKM2 activator
#5 Cn1nnnc1SCC1=C(C(=O)O)N2C(=O)C(NC(=O)C(O)c3ccccc3)C2SC1 (configuration not stated)
  A: · | B: · | C: · | D: -6 | E: · | F: 16% | G: · | H: ·

#7 O=C(O)COCCN1CCN(C(c2ccccc2)c2ccc(Cl)cc2)CC1 (configuration not stated)
  A: 1 | B: 15% | C: 4% | D: 2&3&-1 | E: 11 | F: 5%&-10%&-12% | G: -3% | H: -6%

Another view of three compounds above.
Value order: TRPV1 agonist, MLL CXXC-DNA inh, USP2a inh, Coupling enz, Giardia kill, Menin-MLL TR inh, GALK inh, PKM2 activator
#9 CC(=O)C[C@H](c1ccc([N+](=O)[O-])cc1)c1c(O)c2ccccc2oc1=O
 : ·, -1%[51.4 µM], ·, 9, ·, -3%[24.8 µM], ·, ·
#1 CCCCc1oc2ccccc2c1C(=O)c1cc(I)c(OCCN(CC)CC)c(I)c1
 : 1, 8%&5%, -2%, 0&2&5, 2, ?, -1%, 5%
#12 CNC[C@H](O)[C@H](O)[C@H](O)[C@H](O)CO
 : ·, ·, ·, 0, ·, 6%[24.8 µM], ·, ·
